Screening data: PubChem, Fisher Drug Discovery Resource Center
NPYLR7 ag: mosquito NPYLR7 agonism; hit rate 0.15% among 270,000; HEK293T NPYLR7/Galpha15, GCaMP6s calcium fluorescence; activation, % at 10 µM; in the data active = activation above about 40%;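 note: 0% = vehicle and 100% = reference agonist at the receptor; some compounds past the cut are filed as inactive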
NPYLR7 ag max-min: second read-out of NPYLR7 ag, no call of its own (marks repeat the call); activation, %; measured here: Max-Min RFU normalised activation; some inactives read as strong as hits;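 span of the calcium signal over five minutes; 0% = vehicle and 100% = native peptide agonist; compound fluorescence can raise it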
Active calls of the source: *. Not all compounds are listed, so the mix of outcomes need not match the whole.

SMILES	NPYLR7 ag	NPYLR7 ag max-min
CN(Cc1n[nH]c2c1CCCC2)C(=O)c1cn(C/C=C/c2ccccc2)nn1	1	-3
COC(CNC(=O)c1sc2nc(-c3cccc([N+](=O)[O-])c3)cn2c1C)OC	2	-2
O=C(CCC(F)(F)F)N1CCc2c(ncnc2N2CCOCC2)C1	6	2
CC1CC(C)CN(C(c2ccccc2)C2Sc3ncnn3C2=O)C1 (stereo unspecified)	7	6
Cc1ccc(-c2nc(CNC(=O)c3ccco3)[nH]c2-c2ccccn2)cc1	0	-1
O=S(=O)(Nc1ccc(F)cn1)c1c[nH]c2ncccc12	1	0
COCCN1C(=O)C(=Cc2cccc(Cl)c2Cl)SC1=S	4	4
COc1ccc(-c2ccc(S(C)(=O)=O)cc2)nn1	5	2
CC(O)CC(C)(C)O (stereo unspecified)	-11	1
CCCc1c(C(=O)NCCC(O)(c2nccn2C)C(F)(F)F)[nH]c(C)c1C(=O)OC (stereo unspecified)	0	-4
COc1ccc(-c2cnnc(NCCCN3CCCCC3CO)n2)cc1 (stereo unspecified)	-1	-1
Cc1ccc2[nH]nc(C(=O)N3CCS(=O)(=O)CC3)c2c1	2	0
CCOC(=O)c1ccc(NC2=NC(C)(C)Cc3cc(C)c(C)cc32)cc1	-2	-4
C=CCn1c(SCc2nnc(-c3ccccc3)o2)nnc1C1COc2ccccc2O1 (stereo unspecified)	1	0
COc1cc(-c2cccc3c2CCNC3)cc2cc(C(=O)O)oc12	8	2
CC(C)CC1NC2(C(=O)N(C)c3ccccc32)C2C(=O)N(C(C)C)C(=O)C12 (stereo unspecified)	-2	1
COc1cccc2c1N(S(=O)(=O)c1cc(C)ccc1O)CCC2	1	-3
O=C(COc1cccc(-n2cnnc2)c1)N1CCOCC1	-9	-12
C=CCn1c(SCc2ccccc2F)nc2cc(C(=O)O)ccc2c1=O	-3	-5
CC1=NC2=C(C(=O)CCC2)C(c2ccc(C)cc2)C1C(=O)OCCOc1ccccc1 (stereo unspecified)	-3	-8
CNC(=O)CC(C)N(C)CC1=Cc2cc(Cl)ccc2OC1 (stereo unspecified)	9	10
Cc1cc(-n2c(C)cc(C(=O)CSc3nnc(-c4ccco4)n3C)c2C)no1	-1	4
CN1CCN(S(=O)(=O)c2ccc(NCc3ccccc3F)c([N+](=O)[O-])c2)CC1	11	5
Cc1ccc(NC2=C(Cl)C(=O)N(c3ccc(C(F)(F)F)cc3)C2=O)cc1	23	7
Cc1cc(NC(=O)Cc2ccc3c(c2)OCO3)n(-c2nc3ccc(F)cc3s2)n1	-6	-15

Of the compounds above, two contain a COOH group:
SMILES	NPYLR7 ag	NPYLR7 ag max-min
COc1cc(-c2cccc3c2CCNC3)cc2cc(C(=O)O)oc12	8	2
C=CCn1c(SCc2ccccc2F)nc2cc(C(=O)O)ccc2c1=O	-3	-5

Additional compounds
SMILES	NPYLR7 ag	NPYLR7 ag max-min
CCCCn1ccc2nc3ccn(-c4ncn[nH]4)c(=O)c3cc2c1=O	-3	-2
COC(=O)c1ccc(/C=C2/SC(N)=NC2=O)cc1	5	7
O=P1(N2CCCC2)C=C(c2ccccc2)SC(c2ccccc2)=C1	-5	-13
CCOCCn1c(=O)c2c(nc3n(-c4cc(C)ccc4C)c(C)c(C)n23)n(C)c1=O	6	5
Cc1ccc(S(=O)(=O)Nc2ccccc2Br)cc1C	1	-2
O=C(N1CC(c2ccncc2)C1)C12CC3CC(CC(C3)C1)C2	4	1
CC1CCCCN1CCCNC(=O)C(C1CCCC1)N1CCN(C(=O)CCc2ccccc2)CC1 (stereo unspecified)	-3	1
CC(C(=O)NCc1csc(N)n1)N1C(=O)c2cccc3cccc1c23 (stereo unspecified)	11	-2
CN(C)c1ccc(CN(CC2CCCO2)C(=O)Nc2ccc(C#N)cc2)cc1 (stereo unspecified)	-3	-4
C1=CC(Cc2n[nH]c(Cc3ccccc3)n2)CC1 (stereo unspecified)	-1	-9
CN1CCC(C(=O)NC2CCCCC2c2ccccc2)CC1=O (stereo unspecified)	7	7
COc1ccc(S(=O)(=O)N(CC(=O)NCCSc2ccc(Cl)cc2)c2ccc(C)cc2)cc1OC	0	-1
COc1cc(-c2cc(N)nc(N3CCCC3)n2)cc(OC)c1OC	2	17
Nc1ccc(NC(=O)c2ccco2)cc1	5	0
CCC(=O)N[C@@H]1c2ccccc2C2(CCN(C(=O)c3sccc3C)CC2)[C@H]1OCc1cccnc1	9	-2
O=c1[nH]cnc2c1CCN(Cc1cc3n(n1)CCCNC3)CC2	14	11
CSc1ccccc1-c1cc(C)nc(N)n1	1	-3
CC1(C)CC(NC(=O)c2cnn(-c3ccc(Cl)cc3)c2N)CC(C)(C)N1	-1	8
Cc1[nH]c2ccccc2c1-c1nc(-c2ccccn2)sc1C	2	1
O=C(CCC1CCCN(C2Cc3ccccc3C2)C1)NCc1ccccc1Cl (stereo unspecified)	-1	-6
CN1C[C@@H]2CC[C@H](CC1=O)N2C(=O)c1ccc(-c2ccn[nH]2)cc1	4	3
CC(C)(C)c1ccc(C(=O)N2CCN(c3ccccc3)CC2)cc1	-1	-1
Cc1nc2c(cc1C(=O)Nc1nc(C#N)c(C#N)[nH]1)c(C)nn2C	-2	-1
CCOc1ccccc1N1CCN(C(=O)c2cc(-c3ccc(OC)cc3OC)nn2-c2ccc(C)cc2C)CC1	-2	7
CCOc1ccc(-n2c(CNC(=O)c3cccs3)nnc2SCC(=O)Nc2ccc(OC)cc2)cc1	9	9

Gathered by group: the compounds so far containing a nitro group on carbon.
SMILES	NPYLR7 ag	NPYLR7 ag max-min
COC(CNC(=O)c1sc2nc(-c3cccc([N+](=O)[O-])c3)cn2c1C)OC	2	-2
CN1CCN(S(=O)(=O)c2ccc(NCc3ccccc3F)c([N+](=O)[O-])c2)CC1	11	5

More entries follow:
SMILES	NPYLR7 ag	NPYLR7 ag max-min
CC1=CN2CCS(=O)(=O)N=C2C=C1	5	4
COc1ccccc1N1CCN(c2ccc(NC(=O)Nc3ccc(C)cc3C)cc2C(=O)N2CCCC2)CC1	-3	-6
Fc1ccc(-n2cccn2)c(CN2CCCC(OCc3ccccn3)C2)c1 (stereo unspecified)	-5	-4
COc1ccc2c(=O)c(-c3ccc4c(c3)OCCO4)c(C)oc2c1	-4	-8
Cc1cccc(-c2nc3scc(CCN)n3n2)c1	2	1
CCC(C)NC(=O)COCC(=O)COc1ccc(Cl)c(C)c1 (stereo unspecified)	1	-2
CCOc1ccccc1-c1nc(Cn2nnc(C(=O)Nc3cc(C)ccc3C)c2C)c(C)o1	10	0
C=CCN(Cc1ccc2c(c1)OCCO2)Cc1ccco1	2	1
CCc1cc(N2CCN(S(=O)(=O)N(C)C)CC2)n2ncnc2n1	-6	2
CCC(=O)N1CCCC(C(=O)NC(c2ccc(C)o2)C(C)(C)C)C1 (stereo unspecified)	2	0
CC(C)(O)C#Cc1ccc(C(=O)N2CCCC2c2ccccn2)o1 (stereo unspecified)	11	1
O=C(NCc1cccnc1Oc1ccc(F)c(F)c1)c1c(F)cccc1F	1	1
NS(=O)(=O)C=Cc1ccccc1	3	9
Cc1ccc(-c2nc(N3CCOCC3)c3ccc(Cl)cc3n2)cc1	-7	-2
CCCn1cc(CNC(C)c2cnc(-c3ccncc3)nc2C)c(C)n1 (stereo unspecified)	14	4
Cc1ccccc1Cn1cnc2c(cnn2CCNC(=O)C(C)(C)C)c1=O	-6	-11
O=C(C(=O)N1CCC(c2cc(Cc3ccccc3)[nH]n2)CC1)c1ccco1	14	7
COc1ccccc1N1CCN(c2ccc(NC(=O)c3ccc(C)c([N+](=O)[O-])c3)cc2C(=O)NCC2CCCO2)CC1 (stereo unspecified)	-4	5
CCN(Cc1ccccn1)C(=O)Nc1cc(F)cc(N2CCCC2)c1	-22	-24
O=C1OC(c2ccccc2I)=NC1=Cc1ccccc1OC(F)F	-11	-14
CNC(=O)NC(=O)C(NC(C)c1ccc2c(c1)OCCO2)c1ccccc1 (stereo unspecified)	3	-2
COc1ccc(C(=O)N(C)CC2CCN(CCc3ccccc3OC)CC2)cc1F	2	3
O=C(CCCSc1ccc(NC(=O)C2CC2)nn1)Nc1ccccc1F	3	2
O=S(=O)(c1c(F)cccc1F)N1CCc2c(ncnc2N2CCOCC2)C1	3	2
Cc1cc(C(=O)CN2C(=O)C(=O)N(CCc3cccs3)C2=O)c(C)n1CC(F)(F)F	1	9

One compound at a time (already shown). Order of values: NPYLR7 ag, NPYLR7 ag max-min
Shown for C=CCN(Cc1ccc2c(c1)OCCO2)Cc1ccco1 → 2, 1
Shown for CCc1cc(N2CCN(S(=O)(=O)N(C)C)CC2)n2ncnc2n1 → -6, 2
Shown for CCCn1cc(CNC(C)c2cnc(-c3ccncc3)nc2C)c(C)n1 (stereo unspecified) → 14, 4
Shown for O=C(NCc1cccnc1Oc1ccc(F)c(F)c1)c1c(F)cccc1F → 1, 1

The listing picks up with the three entries that preceded the break.
SMILES	NPYLR7 ag	NPYLR7 ag max-min
O=C(CCCSc1ccc(NC(=O)C2CC2)nn1)Nc1ccccc1F	3	2
O=S(=O)(c1c(F)cccc1F)N1CCc2c(ncnc2N2CCOCC2)C1	3	2
Cc1cc(C(=O)CN2C(=O)C(=O)N(CCc3cccs3)C2=O)c(C)n1CC(F)(F)F	1	9
CCOCCCNc1n[nH]c(=S)s1	-1	-1
CC1(Cc2ccc(F)cc2)C(=O)Nc2c(Cl)ccc(Cl)c21 (stereo unspecified)	3	6
C=CCN(CCN1CCOCC1)Cc1ccc(C#N)cc1	4	0
O=C(CN1CCC(C(=O)N2CCCC2)CC1)Nc1cc(Cl)cc(Cl)c1	-4	-3
OCC1(Cc2cccc(Cl)c2)CCCN(C2CCN(c3ccccc3)CC2)C1 (stereo unspecified)	7	5
COc1ccc(C(=O)N(C)Cc2ccc(C)o2)cc1S(=O)(=O)NC1CC1	5	3
Cc1c(C(=O)N2CCSC(C)(C)C2)oc2c1C(=O)CCC2	-2	-2
CN(C)c1ccc(C(=O)N[C@H]2CO[C@H]3[C@@H]2OC[C@@H]3n2nnnc2-c2cccc(CN3CCCC3)c2)cc1	-10	-18
Cc1cc(N)n(-c2ncnc3sc4c(c23)CCCCC4)n1	-2	-2
CC1(C)CC(O)CC(C)(C)N1CC(O)COC12CC3CC(CC(C3)C1)C2 (stereo unspecified)	12	11
COc1cc(Cl)ccc1OCc1cc(C(=O)NC(C)Cc2cccnc2)no1 (stereo unspecified)	-1	-3
CC(C)(C)c1ccc(C(=O)N2CCC(c3cc(CC(=O)O)[nH]n3)CC2)cc1	4	-5
O=C(NN=Cc1ccccc1O)c1cc(C23CC4CC(CC(C4)C2)C3)[nH]n1	4	4
Cc1ccc(Cn2c(C)c(C(=O)NCc3cccc(C(F)(F)F)c3)sc2=O)cc1	3	1
COc1cccc(OCC(=O)N/N=C2/CCOc3c(C)cccc32)c1	3	2
COc1ccccc1NC(=O)c1cc(S(=O)(=O)N2CCOCC2)c(Cl)cc1Cl	3	-4
O=C(Cc1ccc(NS(=O)(=O)c2cccc3ccccc23)cc1)NC1CC1	-13	-14
CC(C)c1ccc(C(=O)O)c(=O)[nH]1	-4	-5
CC(=O)Nc1ccc(CNC(=O)C23CC4CC(CC(Br)(C4)C2)C3)cc1	5	0
